Assay outcomes: PubChem BioAssay, National Center for Advancing Translational Sciences (NCATS)
TRPML1 inh: blocks the human TRPML1 channel. TRPML1-inducible cells, Ca2+ dye fluorescence, FDSS; active compounds read low; inhibition of EC80 agonist-evoked calcium signal. 390,000 tested, 0.02% active. Q9GZU1. activity change, negative = inhibition, % (test concentration not listed). AID 624415; in the data active means activity change below about -50%; inconclusive means about -30% to -50%; inactive means above about -30%;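 further: stimulus is agonist 54-4 at its EC80 concentration; on the % scale 0 is the no-effect control and ±100 the full control effect; compound concentration not given in the record; the text of the record puts the active cut at -80%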
Target sequence (Q9GZU1 whole entry, looked up): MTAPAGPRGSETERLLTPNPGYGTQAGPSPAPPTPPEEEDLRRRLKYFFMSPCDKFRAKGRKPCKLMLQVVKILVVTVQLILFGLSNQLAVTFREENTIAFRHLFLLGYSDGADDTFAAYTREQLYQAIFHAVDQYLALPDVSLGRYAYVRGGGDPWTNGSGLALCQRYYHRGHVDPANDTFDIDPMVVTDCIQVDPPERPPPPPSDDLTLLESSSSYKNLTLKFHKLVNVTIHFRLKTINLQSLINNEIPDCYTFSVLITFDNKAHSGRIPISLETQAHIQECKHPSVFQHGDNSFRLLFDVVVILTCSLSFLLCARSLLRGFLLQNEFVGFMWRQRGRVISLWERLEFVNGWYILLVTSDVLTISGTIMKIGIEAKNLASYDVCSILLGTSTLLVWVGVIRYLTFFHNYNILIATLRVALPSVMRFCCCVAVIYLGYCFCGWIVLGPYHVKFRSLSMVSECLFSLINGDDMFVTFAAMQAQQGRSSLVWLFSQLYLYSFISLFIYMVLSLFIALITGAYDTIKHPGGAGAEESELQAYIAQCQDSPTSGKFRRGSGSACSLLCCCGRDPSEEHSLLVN
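Calcium fluorescence in TRPML1-DL cells induced overnight with Tet: a 110 s read after compound pin addition, then a 110 s antagonist read after challenge with 54-4 at 4 uM final (EC80).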
gsp antagonist: antagonizes gsp, the McCune-Albright syndrome mutation | AID 624288 | 340,000 tested, 0.4% active | Potency, µM (doses to about 76.9 µM), without a hit: at the highest dose activity change, negative = inhibition, hits mostly inhibitors | gsp-mutant cells, cAMP HTRF, 30 min; control for the full effect not named in the record; active = falling curve of any shape with a large fitted effect; inconclusive = falling curve, mostly with a smaller effect; inactive = flat or rising curve; cell line not stated here;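 further: intracellular cAMP measured with PDE inhibitor Ro 20-1724 present during compound exposure; potency means the concentration at half of the fitted maximal effect; on the % scale 0 is the no-effect control and ±100 the full control effect; nearly all actives have a fitted effect of over 65% in size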
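Cells in G418 medium, seeded 16-24 h, 37C; buffer exchange to DPBS + 1 mM CaCl2, 0.5 mM MgCl2, 0.05% BSA; cpds in DMSO + […] (300 uM stock), 30 min 37C; HTRF cAMP detection.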
Menin-MLL FL inh: displaces fluorescein MLL peptide from human menin; Fluorescence polarization, fluorescein-MLL peptide displacement from menin; FP activity change, % at 61.4 µM; 290,000 tested, under 10 active; inconclusive = falling polarisation curve, or a change in total fluorescence; inactive = total fluorescence flat and polarisation flat or rising; no compound was filed as active; the % refers to the polarisation; negative = inhibition;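 further: % of control where 0% means no effect; inhibitors lower the polarisation; unlabelled MLL peptide was the positive control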
gsp ag: agonists of gsp mutant (McCune-Albright syndrome). gsp mutant cells, cAMP HTRF, 30 min; control for the full effect not named in the record. 340,000 tested, 0.13% active. Potency, µM (series often up to 76.9 µM), for the others: at the top dose activation (cAMP increase), most hits filed as activators; active = well fitted activation curve with a large enough effect; inconclusive = small, poorly fitted or top-dose-only effect, or another doubt; inactive = no such curve, though single readings can be large or run the other way; cell line not stated here;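 further: phosphodiesterase inhibitor Ro 20-1724 added with compounds to block cAMP breakdown; potency means the concentration at half of the fitted maximal effect; nearly all actives have a fitted effect of over 60% in size; about a fifth of the inactives were tested at one dose only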
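Cells stably selected in G418 were plated at 2000/well, grown 16-24 hr, then given compounds in DMSO with the PDE inhibitor […] (300 uM solution added) for 30 min at 37C; cAMP was read by HTRF.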
TRPML1 ag: activates the human TRPML1 channel; activation, % (no concentration beside the values); AID 624414; TRPML1-expressing cells, Ca2+ dye fluorescence, FDSS; host cell line not named in the record; reference of the full effect not given here; Q9GZU1; 410,000 tested, 0.12% active; in the data active = activation above about 50%; inconclusive = about 30% to 50%; inactive = below about 30%; further: 0% is about no effect; the text of the record puts the active cut at 80%
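Tet-induced TRPML1-DL cells, 1,500 per well, cultured overnight, were loaded with a no-wash Ca2+ dye for 45–90 min. Calcium fluorescence was recorded on the FDSS for 110 s after compound addition, before the EC80 agonist (4 uM 54-4) was added.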
ClpP mod: qHTS Assay for Activators of ClpP. ATP-dependent Clp protease proteolytic subunit (Bacillus subtilis (strain 168)), P80244. purified B. subtilis ClpP, FRET peptide cleavage, 20 min. Potency, µM (doses to about 57.5 µM), for inactives: at the top dose activity change, negative = active. 340,000 tested, 1.9% active. AID 651965, 2013; active = well fitted falling curve with a large enough effect; inconclusive = small, poorly fitted or top-dose-only effect; inactive = no such curve, though single readings can be large or run the other way; further: potency means the concentration at half of the fitted maximal effect; the source files actives as falling curves though it sought activators and does not explain the sign; nearly all actives have a fitted effect of over 65% in size; many hits overshoot -100%
Target sequence (P80244 whole entry, looked up): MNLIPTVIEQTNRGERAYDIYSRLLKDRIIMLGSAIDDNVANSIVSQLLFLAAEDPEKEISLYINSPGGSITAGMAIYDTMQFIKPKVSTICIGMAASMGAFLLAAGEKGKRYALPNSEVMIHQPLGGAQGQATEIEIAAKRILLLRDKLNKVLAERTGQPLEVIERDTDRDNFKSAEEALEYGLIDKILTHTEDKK
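ClpP 10 microg/mL final, pH 8 Tris/KCl buffer with BSA, glycerol, Tween-20; compound pinned in; FRET-FV substrate; RT 20 min; Ex320/Em430; ΔFRET vs ADEP 5.8 microM, DMSO, no enzyme.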
Starred values were filed as active, the others as inactive; ? = inconclusive; . = not tested or not shown; [ ] = remark or other dose. Compounds were not picked by outcome. Share with any hit: about 2.1%.

molecule,TRPML1 inh,gsp antagonist,Menin-MLL FL inh,gsp ag,TRPML1 ag,ClpP mod
O=C(NC1CCCC1)C(c1ccncc1)N(CCCN1CCOCC1)C(=O)c1ccc(-c2ccccc2)[nH]1 (configuration not stated),15,-5%,-0.5,-16%,3.6,-18%
Cc1ccc(NC(=O)/C(=C\C=C\c2ccccc2)NC(=O)c2ccccc2)cc1,39,13%,1.0,2%,2.0,-2.6%
Cc1ccc(C)c(-c2cc(C(=O)Nc3cccc(C(=O)O)c3)c3ccccc3n2)c1,8,5%,1.0,-1%[15.4 µM],0.6,.
CN(C(=O)COC(=O)c1nc(Cl)ccc1Cl)c1ccccc1,-12,2%,.,?,0.5,-2.4%
CC1(C)C2CCC1(CS(=O)(=O)Nc1cccc(S(N)(=O)=O)c1)C(=O)C2 (configuration not stated),-13,1%,2.1,13%,0.5,-2.6%
O=C(CNC(=S)N(Cc1ccccc1F)C1CCCCC1)NCCN1CCOCC1,4,8%,0.4,-6%[15.4 µM],0.6,.
CC(C)C[C@@H](CN1CCCC1CN1C(=S)NC[C@@H]1Cc1ccc(O)cc1)N1C[C@H](Cc2ccc(O)cc2)N(CC2CCCCC2)C1=S (some centres not stated),-15,-12%,.,.,-0.1,-4.0%
O=C(Nc1cccc(Cl)c1)c1ccc(F)c(S(=O)(=O)N2CCC3(CC2)OCCO3)c1,40,.,.,.,2.2,-0.2%
N#CCC(=O)Nc1ccc(C(=O)NCc2ccccn2)cc1,16,5%,0.3,?,2.7,-1.1%
CCOC(=O)c1cnc2c(cnn2C)c1NCCC#N,-2,3%,-0.1,?,1.3,-10%
CCOC(=O)c1c(S(=O)(=O)Nc2cccc(Cl)c2)c(C)n(C)c1C,-22,-7%,-2.4,15%,-0.9,-12%
CCOc1ccc(NC(=O)Nc2ccc(N(C)C(C)=O)cc2)cc1,-4,-4%,5.0,15%,-0.1,1.2%
Cc1ccc(NC(=O)COc2ccc(/C=C3/SC(=Nc4ccccc4)N(Cc4cccnc4)C3=O)cc2)cc1,57,4%,?,?,0.2,1.3%
COc1cccc(Nc2nc(-c3ccc(O)cc3)cs2)c1,-4,-3%,1.7,20%,0.7,1.2%
O=S(=O)(NC1CCCC1)c1ccc(Br)s1,-8,2%,3.8,-6%,1.6,-1.2%
COc1ccc(N2C(=O)/C(=C/c3ccc([N+](=O)[O-])cc3)N=C2C)c(OC)c1,5,4%,0.2,3%[15.4 µM],-0.2,.
CC1(C2CC2)NC(=O)N(CC(=O)Nc2ccc(OC(F)F)cc2)C1=O (configuration not stated),2,.,.,0%,-0.6,-0.5%
O=C(CCc1ccccc1)Nc1cc(C(F)(F)F)ccc1Cl,12,-7%,2.6,9%,3.3,-1.6%
Cc1cccc(CNC(=O)C(C)n2nc(C)c3c(C)n(-c4ccccc4)nc3c2=O)c1 (configuration not stated),-1,-12%,.,?,0.5,-6.1%
O=C(NCc1ccc2c(c1)OCO2)C1CCCCC1,-11,6%,3.2,-5%[15.4 µM],0.4,-0.6%

2 entries from above, with each value named:
O=C(CCc1ccccc1)Nc1cc(C(F)(F)F)ccc1Cl
  TRPML1 inh: 12
  gsp antagonist: -7%
  Menin-MLL FL inh: 2.6
  gsp ag: 9%
  TRPML1 ag: 3.3
  ClpP mod: -1.6%
Cc1cccc(CNC(=O)C(C)n2nc(C)c3c(C)n(-c4ccccc4)nc3c2=O)c1 (configuration not stated)
  TRPML1 inh: -1
  gsp antagonist: -12%
  Menin-MLL FL inh: .
  gsp ag: ?
  TRPML1 ag: 0.5
  ClpP mod: -6.1%

Carrying on:
molecule,TRPML1 inh,gsp antagonist,Menin-MLL FL inh,gsp ag,TRPML1 ag,ClpP mod
CCn1c(SCC(=O)N2CCCC2)nc2c1c(=O)n(C)c(=O)n2C,-15,15%,-1.2,8.9µM*,-0.4,-0.7%
COC(=O)C(C(=O)OC)C(C[N+](=O)[O-])c1ccc(OC)cc1 (configuration not stated),5,2%,5.6,-41%[inhibitor],-0.6,-1.8%
Cc1cccc(C)c1NC(=O)CNC(=O)CCNC(=O)c1ccco1,-1,7%,.,-73%[inhibitor],0.2,0.7%
CCOC(=O)C1CCCN(C(=O)c2cccc(N3C(=O)c4ccccc4C3=O)c2)C1 (configuration not stated),-6,-4%,.,19%,-1.8,0.7%
C#CCOCCOCCOCCNc1nc(N2CCN(C(=O)CCCCCCCCCCNC(=O)[C@H](CCCCN)n3cc(CCO)nn3)CC2)nc(N2CCN(C(=O)CCCCCCCCCCNC(=O)[C@H](CCCN=C(N)N)n3cc(C[C@@H](C)CC)nn3)CC2)n1,-6,-22%,.,-12%,-0.6,1.6%
COC(=O)C1(CC2CC(c3ccncc3)=NO2)CCN(C(=O)OC(C)(C)C)CC1 (configuration not stated),20,-8%,.,1%,-0.5,0.1%
CCc1ccc(NC(=O)c2ccc(Cn3cc([N+](=O)[O-])cn3)cc2)cc1,-7,-4%,6.7,-5%,3.9,4.4%
CCOCC(=O)Nc1nnc(COCC)s1,-4,-1%,-1.7,0%,-0.6,-0.3%
COc1ccccc1CC(=O)N1CCN(c2ccccc2F)CC1,-3,-3%,-2.3,7%,0.4,1.7%
CS(=O)(=O)N(CC(=O)Nc1ccccc1C(=O)N1CCOCC1)c1ccccc1,21,4%,-2.4,-25%,0.9,-2.0%
CCOC(=O)NC1(C(F)(F)F)NC(=O)N(C2CCCCC2)C1=O (configuration not stated),19,-2%,-0.7,-5%,0.8,0.5%
COc1ccc(CCNC(=O)c2ccccc2C(=O)NCCc2ccc(OC)c(OC)c2)cc1OC,4,0%,.,2%[15.4 µM],-0.6,-0.6%
CCCOc1ccc(C(=O)CCC(=O)OC(C)C(=O)Nc2ccc(NC(C)=O)cc2)cc1 (configuration not stated),1,-7%,.,18%,-0.1,-0.7%
COc1ccc(NC(=O)CN(C)C(=O)C2CC(=O)N(CCc3ccc(OC)c(OC)c3)C2)cc1 (configuration not stated),0,6%,.,-4%[15.4 µM],-0.9,.
CCOc1ccc(/C(O)=C2/C(=O)C(=O)N(CCCN3CCOCC3)C2c2ccc(C)cc2)cc1C (configuration not stated),-3,11µM*,0.9,39%,0.1,-3.2%
CCOC(=O)N1CCC(NC(=O)c2ccc3c(c2)N(Cc2cc(C)ccc2C)C(=O)c2ccccc2S3=O)CC1 (configuration not stated),11,.,.,.,-0.2,1.2%
O=C(Nc1cccc(Cl)c1)c1csc(-c2ccccc2)n1,4,-20%,5.3,-4%,1.9,-17%
O=C1C=C(c2ccccc2Oc2ccccc2)C[C@@H](c2ccc(F)cc2)C1,32,.,.,?,0.7,-2.2%
CC(CO)(CO)NC(=O)c1ccc(=O)[nH]n1,-1,16%,-0.6,11%,1.4,-1.2%
COc1ccc(OC)c(Cc2nnc(CCC(=O)NC3CCCCCCC3)o2)c1,-5,6%,1.3,1%,0.7,.
CCn1cc([N+](=O)[O-])c(C(=O)N2N=C(c3ccc(OC)cc3OC)CC2c2ccccc2O)n1 (configuration not stated),-1,-20%,1.2,2%,-0.7,-1.3%
Cc1cc(Nc2ccc(Cl)cc2)nc(-c2ccccc2O)n1,13,?,-4.3,?,2.9,-9.5%
COc1cccc(OCc2cc(C(=O)N(C)Cc3nc(C)cs3)no2)c1,-4,-6%,.,-20%[15.4 µM],0.5,-1.1%
COC(=O)C1CCN(S(=O)(=O)Cc2ccccc2)CC1,3,6%,5.2,-14%,-0.3,2.6%
CC1(C)CC2(CCO1)C(Nc1ccccc1)=NC(=S)N2CC(N)=O (configuration not stated),4,5%,1.9,16%,2.8,-0.3%
CCn1cc(CCC(=O)NC2CCCC2)c2ccccc21,1,3%,-2.4,1%,1.0,.
Cc1cccn2c(=O)c3cc(C(=O)NC4CCCCCC4)sc3nc12,-5,5%,-6.5,?,-0.2,.
O=C(OCn1ncc(Cl)c(Cl)c1=O)c1ccccc1Cl,23,18%,1.8,-14%,1.6,-1.5%
COc1ccccc1C(=O)N/N=C(\C)CC(=O)Nc1ccc(Cl)cn1,8,-12%,1.8,0%[15.4 µM],0.6,.
CC1CCCC(C)N1c1nnc(NC(=O)c2cc(-c3ccc(Br)cc3)on2)s1 (configuration not stated),9,-4%,-2.7,?,-0.1,34%
Cc1nnc2c(SC(C)C)nc3ccccc3n12,0,-7%,-22,?,0.4,-0.6%
CCn1cc(Cl)c(C(=O)Nc2ccccc2C(N)=O)n1,41,2%,0.2,-54%[inhibitor],0.3,-4.7%
O=C(COC(=O)CCc1nc2ccccc2n1-c1ccccc1)Nc1cccc(Cl)c1,1,-13%,6.7,-47%,1.8,-3.0%
COc1ccc(C)cc1NC(=O)C1CCCN(S(=O)(=O)c2cnc[nH]2)C1 (configuration not stated),5,1%,1.8,-5%,0.2,-1.7%
CCCOC(=O)c1ccc(NC(=O)C(CC)CC)cc1,22,-13%,-2.4,-13%,1.2,-3.5%
COc1cc([N+](=O)[O-])ccc1N1C(=O)CC(Sc2nccc(C)n2)C1=O (configuration not stated),6,0%,1.5,?,-0.3,-0.1%
Cc1oc(-c2ccc(F)cc2)cc1-c1nn2c(-c3ccoc3C)nnc2s1,-10,-1%,4.1,1%,-0.4,5.0%
CCC(Oc1ccc(F)cc1)C(=O)Nc1c(C(=O)c2ccc(C)cc2)oc2ccccc12 (configuration not stated),26,.,.,.,0.2,-4.2%
CCN(CC)c1ccc(-c2nc(-c3ccccc3C)no2)cc1[N+](=O)[O-],7,.,.,.,-0.3,0.5%
CN1CCN(NC(=O)CN2C(=O)S/C(=C\c3c(Cl)cccc3Cl)C2=O)CC1,1,.,1.1,5%[15.4 µM],-0.7,.
CCOC(=O)c1ccc(NC(=S)NCc2ccco2)cc1,15,-4%,3.1,15%,1.8,-3.3%
CC(=O)Nc1ccc(C(=O)COC(=O)c2cccs2)c(F)c1,-5,-1%,.,?,0.1,-1.4%
CC(CCc1ccccc1)NC(=O)COC(=O)c1ccccc1Br (configuration not stated),14,-10%,-3.7,0%,4.7,0.4%
COc1ccc2cc(C(c3nnnn3C3CCCC3)N3CCCCCC3)c3nnnn3c2c1 (configuration not stated),-7,-3%,3.5,?,-1.0,1.0%
Cc1ccc(NC(=O)CN(C)C(=O)c2cc(-c3ccco3)nc3ccccc23)cc1,-8,-9%,.,5%[15.4 µM],1.4,.
O=C(CSc1n[nH]c(=O)[nH]c1=O)NC1CC1,0,6%,0.7,7%,0.4,0.0%
